NPYLR7 ag – activates Aedes aegypti NPYLR7 receptor | HEK293T NPYLR7/Galpha15, GCaMP6s calcium fluorescence | activation, % at 10 µM | hit rate 0.15% among 270,000 | AID 1259423; in the data active means activation above about 40%;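 further: 0% = vehicle and 100% = reference agonist at the receptor; some compounds past the cut are filed as inactive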
NPYLR7 ag max-min – recorded beside NPYLR7 ag, whose call it bears; activation, %; measured here: Max-Min RFU normalised activation; some inactives read as strong as hits;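 span of the calcium signal over five minutes; 0% = vehicle and 100% = native peptide agonist; compound fluorescence can raise it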
* = called active by the depositor; & = joins results of further samples. The list is partial; the hit share may differ from the screen's.

SMILES	NPYLR7 ag	NPYLR7 ag max-min
Cc1nonc1CN(C)C(=O)c1cc(COc2ccccc2F)[nH]n1	16	4
CCOCCCNC(=O)c1cc(NC(=O)c2ccccc2Br)ccc1N1CCN(c2ccccc2OC)CC1	-1	2
c1ccc(OCc2nn3c(Cn4nnc5ccccc54)nnc3s2)cc1	-1	-3
CCOc1nc(-c2cccc(F)c2)n(-c2cccc(NC(=O)c3cccs3)c2)n1	-3	5
CCC(=O)Nc1cccc(C(=O)N(C)Cc2n[nH]c3c2CCCC3)c1	1	-2
CCOc1cnn(-c2ccc(Cl)cc2)c(=O)c1Nc1ccc(C(=O)O)cc1	6	4
O=C(NC(Cc1ccccc1)c1ccccc1)c1cc(-c2ccc3c(c2)OCO3)nc2ccccc12 (stereo not drawn)	-1	10
CC(NC1(CN2CCOCC2)CCCCC1)C(=O)NC1CCCC1 (stereo not drawn)	4	1
CCCCN(CCC(=O)NC1CCN(Cc2ccccc2)CC1)c1nc(Cc2ccc(C)cc2)ns1	-4	-8
O=C(CN1C(=O)c2ccccc2C1=O)Nc1ccc(F)c(Cl)c1	-5	-3
Cc1c(C(=O)N2CCN(CC(OCc3c(F)cccc3F)c3ccc(Cl)cc3)CC2)oc2ccccc12 (stereo not drawn)	3	-2
CNC(=O)CCc1csc(NC(=O)c2ccc[nH]c2=O)n1	-13	-17
Cc1cc(C)c2nc(NNC(=O)c3cc(=O)c4ccccc4o3)sc2c1	0	-5
Cc1nc(N2CCN(C)CC2)c2sc(=S)n(C)c2n1	-7	-8
O=C(CCl)Nc1ncc(Cc2ccccc2Cl)s1	3	3
COC(=O)C1CC2(CCN(CC(=O)Nc3cccc(C#N)c3)CC2)c2ccccc21 (stereo not drawn)	1	31
Cc1cc(CN(Cc2cc(C)no2)CC(CCl)n2cccn2)on1 (stereo not drawn)	5	4
O=c1c2cnc3ncnn3c2ccn1-c1cccc2ccccc12	4	6
CC(CS(C)(=O)=O)N(C(=O)C1(C)CC1(Cl)Cl)C1CC1 (stereo not drawn)	-2	-6
N#Cc1sc(=S)n(-c2ccccc2)c1N	2	10
Clc1ncnc2c1oc1ccc(Br)cc12	3	4
CC1=C(c2ccc(F)cc2)N2CCS(=O)(=O)N=C2S1	-1	-2
N#Cc1ccc(CSc2nnnn2C2CC2)cc1	0	2
O=C(NC(c1ccc(Cl)cc1)c1cnccn1)C1CCN(CCOc2ccc(F)cc2)CC1 (stereo not drawn)	-18	-21
CC1=CC(C)(C)N2C(=O)C(=O)c3cc(C)cc1c32	0	-3
O=C(Nc1ccc(-c2cscn2)cc1)C1CCCN1Cc1ccccc1 (stereo not drawn)	5	0
COc1ccc(OC)c(NC(=O)c2ccc(NC(C)C)nc2)c1	1	0
CC(=O)c1cc(Cl)c(C)cc1O	-3	6
CCc1nc2n(n1)C(=O)C(C(c1ccc(F)c(F)c1)N1CCCC1)S2 (stereo not drawn)	-1	0
COc1ccc(N(C)S(=O)(=O)c2ccc(OC)c(N3CCN(C(=O)c4ccco4)CC3)c2)cc1	-12	-1
CC1=C(C)C(OCCCl)N(c2cc(O)c(Cl)cc2F)C1=O (stereo not drawn)	1	27
c1ccc(N2CCC(NCc3cc(-c4ccco4)on3)C2)cc1 (stereo not drawn)	2	1
CC(C)(C)c1ccc(S(=O)(=O)Nc2ccccc2C(=O)NCc2ccco2)cc1	7	17
CC1(C)CC(NC(=O)Cn2c(-c3ccc(Cl)cc3)nc3ccccc32)CCO1 (stereo not drawn)	0	-2
O=C(NC(c1ccc(F)cc1)c1ccc(SCc2ccccc2)cc1)/C(=C/c1ccccc1)c1ccccc1 (stereo not drawn)	-8	-10
Nc1nc(SCc2csc(-c3ccc(Cl)cc3)n2)n[nH]1	0	-3
COC(=O)[C@@H]1CCCN1C(=O)Cc1ccc(N2CCC(NCc3ccc4c(c3)OCO4)CC2)cc1	9	5
O=C(O)c1c[nH]c2ccc(S(=O)(=O)NCCc3nc(C(c4ccccc4)c4ccccc4)n[nH]3)cc2c1=O	-6	2
Cc1cc(C(=O)N2CCC3(CC2)N=C(CC(C)C)NC3=O)c(C)o1	2	2
CC(c1ccc(-c2ccc3cc[nH]c(=O)c3c2)cc1)N1CCOCC1 (stereo not drawn)	0	-1
O=C1c2ccccc2S(=O)(=O)N1CCSc1nnc(-c2c[nH]c3ccccc23)o1	12	14
CCCCCc1ccc(C(=O)N(CCC)CC(=O)Nc2cc(-c3ccccc3)nn2-c2ccc(Cl)cc2)cc1	21	17
CN(C)CCCNc1ncnc2ccc(Br)cc12	3	3
CC(C)CNC(=O)c1coc(CN(CCc2c[nH]c3ccccc23)Cc2cccc(Oc3ccccc3)c2)n1	2	4
CN(CC(=O)Nc1ccccc1F)C(=O)c1ccccc1	-3	-5
COC(=O)c1ccc(Nc2nnc(C(C)(C)C)c(=O)[nH]2)cc1	0	-1
O=C(NCC1CCCO1)C1CCCN(S(=O)(=O)N2CCCCCC2)C1 (stereo not drawn)	8	6
O=C(CSc1nnc(CNC(=O)c2ccccc2C(F)(F)F)n1-c1ccc([N+](=O)[O-])cc1)Nc1nccs1	-5	3

Compound profiles, from the list above.
CN(C)CCCNc1ncnc2ccc(Br)cc12 in the list: NPYLR7 ag = 3; NPYLR7 ag max-min = 3
O=C(O)c1c[nH]c2ccc(S(=O)(=O)NCCc3nc(C(c4ccccc4)c4ccccc4)n[nH]3)cc2c1=O in the list: NPYLR7 ag = -6; NPYLR7 ag max-min = 2

Carrying on:
SMILES	NPYLR7 ag	NPYLR7 ag max-min
COc1ccc(CN(CCc2c[nH]c3ccccc23)C(=O)CN(CC(C)C)C(=O)CSc2ccccc2)cc1OC	16	7
NC(=O)c1ccc(C(=O)N2CCCC2c2ccc(Br)cc2)s1 (stereo not drawn)	9	5
Cc1cc(C=C2SC(=Nc3ccc(Cl)cc3)NC2=O)c(C)n1-c1ccc(S(N)(=O)=O)cc1	-1	-3
Cc1nc(SC(C)C(=O)N2CC(C)CC(C)C2)sc1CC(N)=O (stereo not drawn)	5	1
Cc1cnc(-n2cnnc2)c(-c2ccc(C(C)N3CCOCC3)cc2)c1 (stereo not drawn)	1	-1
CC(C)Cn1c(N/N=C\c2ccccc2)nc2c1c(=O)n(C)c(=O)n2C	2	-1
COC(=O)c1ccc(S(=O)(=O)N2CCC(Oc3nc4ccccc4s3)CC2)cc1	0	0
CC(=O)NCCc1ccc(C(=O)N2CCN(C)CC2C)cc1 (stereo not drawn)	3&2	11&5
CCn1nnc2c(NCCc3ccc(OC)cc3)ncnc21	-2	8
NS(=O)(=O)c1ccc(S(=O)(=O)Nc2ccc(F)c(Cl)c2)cc1	0	-1
O=C(NC1CCN(c2ccccc2C(=O)NCc2cccc(C(F)(F)F)c2)CC1)c1ccc(F)cc1F	-14	-13
COc1ccccc1CNc1c(C#N)cnc2ccc(Cl)cc12	-3	-6
Cc1ccccc1C(NC(=O)C1CCN(Cc2ccccc2)CC1)c1ncccc1C (stereo not drawn)	11	2
CCc1ccccc1NC(=O)CCNC1CCSC1 (stereo not drawn)	-2	-5
CC1(NC(=O)/C=C/c2ccc(-c3ccc(Cl)cc3)s2)CCS(=O)(=O)C1 (stereo not drawn)	6	0
CN(Cc1ccc(Cl)s1)S(=O)(=O)c1ccc(Cl)s1	2	1
COC(=O)NNc1ncnc(N)c1[N+](=O)[O-]	17	12
Nc1nnc(CC(=O)N2CCO[C@@H]3CCCC[C@H]32)s1	4	1
CCC1=NOC(O)(CC)C12CC2 (stereo not drawn)	2	23
Cc1cc(NCC(=O)NC2(C#N)CCCCC2)ccc1-n1cnnn1	-1	2
CCc1nc2ccc(C(=O)N(C)Cc3ccco3)cn2c1N(C)Cc1ccncc1	2	-9
CCSc1nnc(N=Cc2nc(-c3ccc(Cl)cc3)oc2O)s1	-10	-15
CC(C)N(Cc1ccc(N(C)C)cc1)C(=O)NCC(F)(F)F	-2	-5
Cc1ccc(NC(C)C(=O)NCCc2cccs2)cc1C(N)=O (stereo not drawn)	1	2

Fetched by compound from above, three records:
SMILES	NPYLR7 ag	NPYLR7 ag max-min
CCCCN(CCC(=O)NC1CCN(Cc2ccccc2)CC1)c1nc(Cc2ccc(C)cc2)ns1	-4	-8
NC(=O)c1ccc(C(=O)N2CCCC2c2ccc(Br)cc2)s1 (stereo not drawn)	9	5
CCOCCCNC(=O)c1cc(NC(=O)c2ccccc2Br)ccc1N1CCN(c2ccccc2OC)CC1	-1	2

(cont.)
SMILES	NPYLR7 ag	NPYLR7 ag max-min
COC(=O)c1sccc1S(=O)(=O)Nc1cc(C)ccc1F	-1	4
O=C(NC12CC3CC(CC(C3)C1)C2)c1cc2c(cc1Cl)N1CCCCCC1=NS2(=O)=O	-11	-13
Cc1ccc(-n2nc(CCCN)c(C#N)c2N)cc1	0	-1
Cc1ccc(-n2nnc3c(=O)n(CC(N)=O)cnc32)cc1Cl	-4	-6
CCSc1nnc(N)s1	2	6
C[C@H]1O[C@H](O[C@@H]2[C@@H](O[C@H]3CC[C@@]4(C)C(CC[C@]5(C)C4CC=C4[C@@H]6CC(C)(C)CC[C@]6(C(=O)O)CC[C@]45C)[C@]3(C)CO)OC[C@@H](O)[C@H]2O)[C@@H](O)[C@H](O)[C@@H]1O (stereo partly drawn)	53*	41*
COc1ccc(C2CC(c3ccc(Br)s3)=Nc3nnnn32)cc1OC (stereo not drawn)	23	18
Cc1cc(SCC(=O)N2CCCCCC2)nc(=O)[nH]1	-1	-2
COc1ccccc1C1(c2nnc(CC3CCCCC3)o2)CCOCC1	9	1
c1ccc2c(c1)nc(Nc1ccc3c(c1)OCO3)c1nnnn12	3	7
O=C(CSc1nc2c(c(=O)[nH]1)CCC2)N1CCCC1	3	3
COc1ccc(-c2n[nH]c(=S)n2CC(=O)N2CCN(c3cccc(C)c3C)CC2)cc1	6	3

Grouped by structure: the entries above containing a nitro group on carbon
SMILES	NPYLR7 ag	NPYLR7 ag max-min
O=C(CSc1nnc(CNC(=O)c2ccccc2C(F)(F)F)n1-c1ccc([N+](=O)[O-])cc1)Nc1nccs1	-5	3
COC(=O)NNc1ncnc(N)c1[N+](=O)[O-]	17	12

Next section
SMILES	NPYLR7 ag	NPYLR7 ag max-min
CCOc1cc(/C=C2\C(=N)N3N=CSC3=NC2=O)cc(Br)c1OC(=O)c1ccccc1	74*	70*
OC[C@@H]1C[C@@H]2O[C@H]1[C@H]1CN(C3Cc4ccccc4C3)C[C@H]1[C@H]2O	8	18
O=C1c2ccccc2NC2(CCN(S(=O)(=O)c3ccc4c(c3)CCO4)CC2)N1CCO	0	13
CN(CCc1cnn(C)c1)C(=O)c1coc(COc2cccc(C(F)(F)F)c2)n1	2	-2
COc1ccc(-n2c(SCc3ccc(C(=O)NCc4ccncc4)cc3)nnc2-c2ccco2)cc1	3	3
O=C(Nc1ccc(Cl)c(Cl)c1)Nc1ccc(I)cc1F	-1	-2
CN1C(=O)N(Cc2ccc3ccccc3c2)C(=O)C12CCN(Cc1ccncc1)CC2	12	-3
O=CN1CCN(C2CC(=O)N(c3ccc(F)cc3)C2=O)CC1 (stereo not drawn)	0	-2

Structural class: those above with a CF3 group (4)
SMILES	NPYLR7 ag	NPYLR7 ag max-min
O=C(CSc1nnc(CNC(=O)c2ccccc2C(F)(F)F)n1-c1ccc([N+](=O)[O-])cc1)Nc1nccs1	-5	3
O=C(NC1CCN(c2ccccc2C(=O)NCc2cccc(C(F)(F)F)c2)CC1)c1ccc(F)cc1F	-14	-13
CC(C)N(Cc1ccc(N(C)C)cc1)C(=O)NCC(F)(F)F	-2	-5
CN(CCc1cnn(C)c1)C(=O)c1coc(COc2cccc(C(F)(F)F)c2)n1	2	-2
